AID504770 – growth inhibitors of E. coli YBA685 in a screen for V. cholerae RctB (chromosome II replication) inhibitors; 130,000 tested, 0.27% active; AID 504770; E. coli YBA685 rctB-dependent plasmid, OD600 growth, 3 h; stronger effect = lower value; z-score (test concentration not listed);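 active = z-score under -2 on both plates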;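 note: wells of about 30 µL received 100 nL stock; score is relative to mean and SD of the test wells; the first replicate is given; strong numbers were not always called active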
Ba CapD inh – blocks the Bacillus anthracis CapD enzyme | z-score (no concentration beside the values) | 140,000 tested, 0.23% active | purified CapD enzyme, fluorescence intensity read-out; stronger effect = lower value; some hits fall short of the stated cut;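 active = z-score under -4 in either of two replicates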;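 note: stock transfer was 100 nL into about 40 µL; score is relative to mean and spread of the plate; one replicate is shown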
The depositor's hits bear a star; i = inactive; . = no result given. These rows are one share of the data. The share of hits here may be higher or lower than overall.

SMILES | AID504770 | Ba CapD inh
Cc1cc(C)nc(NS(=O)(=O)c2ccc(NC(=O)Cc3ccccc3)cc2)n1 | . | 0.16
C=CCc1cc(/C=C2\C(=O)NC(=O)N(c3ccc4c(c3)OCO4)C2=O)cc(OCC)c1O | . | 0.02
CSc1cc(-c2csc3ccccc23)[nH]n1 | -0.55 | 0.12
CC(=O)OCC(=O)Nc1ccc(I)cc1C | 0.15 | -0.97
O=C(c1ccccc1)C1CN(C2CCS(=O)(=O)C2)CCC1(O)c1ccccc1 (centres undefined) | -0.35 | 0.68
N#CC(C#N)C(c1ccsc1)c1c(-c2ccccc2)[nH][nH]c1=O (centres undefined) | 1.1 | -0.89
CCOC(=O)c1sc(NC(=O)c2cccs2)nc1-c1ccccc1 | -0.25 | 0.28
C=CCN(CC=C)S(=O)(=O)c1ccc(C)cc1 | -0.4 | .
O=C(CO/N=C/c1ccccc1OC(F)F)N1CCc2ccccc21 | 0.2 | .
CC1CCN(c2cc(N(C)CCO)c([N+](=O)[O-])c3nonc23)CC1 | . | -2.9
Cc1noc(C)c1COc1ccc(CC(=O)NCc2ccccc2)cc1 | -0.5 | .
COc1cccc(Nc2n[nH]c(=S)s2)c1 | . | -1.1

Reprinted at random: 4 compounds from above.
SMILES | AID504770 | Ba CapD inh
Cc1noc(C)c1COc1ccc(CC(=O)NCc2ccccc2)cc1 | -0.5 | .
N#CC(C#N)C(c1ccsc1)c1c(-c2ccccc2)[nH][nH]c1=O (centres undefined) | 1.1 | -0.89
C=CCN(CC=C)S(=O)(=O)c1ccc(C)cc1 | -0.4 | .
CSc1cc(-c2csc3ccccc23)[nH]n1 | -0.55 | 0.12

The list continues.
SMILES | AID504770 | Ba CapD inh
COc1ccc(-c2cc(C(F)(F)F)n3ncc(C(=O)N4CCc5ccccc5C4)c3n2)cc1OC | . | -1.7
O=C1c2ccccc2C(=O)c2c1oc1c3c(ccc21)OCN(Cc1ccccc1)C3 | 0.3 | .
Oc1ccc(O)c([S+]2CCCCC2)c1 | 0.65 | -1.2
C=CCC1S/C(=N/N=C/c2ccccc2)NC1=O (centres undefined) | 1.1 | .
Cc1ccc(Nc2cc(C(=O)NCCC3=CCCCC3)c3ccccc3n2)c(C)c1 | 1.4 | 0.75
COc1ccc(C2NC(=O)NC(C)=C2C(=O)Nc2ccc(F)c(F)c2)cc1OC (centres undefined) | . | -0.38
NCCN1C(=O)S/C(=C/c2ccccc2)C1=O | 0.25 | -2.8
COc1cccc(-n2cc[nH]c(=O)c2=O)c1 | -1 | -1.8
CCc1cc(C(=O)Cc2cnn(-c3ccccc3)c2)c(O)cc1OC | -0.35 | .
CC(C)NC(=O)COc1coc(CN2CCN(C(=O)c3ccco3)CC2)cc1=O | 0.45 | .
COc1cc(C(=O)Nc2cc(C(=O)NCc3ccco3)ccc2N2CC3CC(C2)c2cccc(=O)n2C3)cc(OC)c1OC (centres undefined) | . | -0.01
CCOC(=O)c1c(C)n(C)c2ccc(OCCN(C)C)cc12 | -0.85 | -0.56

Compound profiles, as listed above.
COc1ccc(C2NC(=O)NC(C)=C2C(=O)Nc2ccc(F)c(F)c2)cc1OC (centres undefined) is entered as AID504770 = .; Ba CapD inh = -0.38
NCCN1C(=O)S/C(=C/c2ccccc2)C1=O is entered as AID504770 = 0.25; Ba CapD inh = -2.8

Remaining list, next part:
SMILES | AID504770 | Ba CapD inh
CCOC(=O)c1cnc2c(ccc3[nH]snc32)c1=O | -1.1 | i
OC1C2CN3CCN(C2)CC1(Cc1ccccc1)C3 (centres undefined) | -0.15 | .
Cc1ccc(-n2nc(C)c3c(C)c(CCC(=O)NCc4cccs4)c(C)nc32)cc1 | -0.55 | 0.58
O=C(O)CSCC(=O)N1CCN(c2ccc(Cl)cc2)CC1 | . | -0.09
CC(=O)Nc1ccccc1OCCN(Cc1ccccc1)C(=O)c1ccc(Cl)cc1 | -0.4 | 0.37
O=C(Nc1ccc(Cl)cc1)OCCNS(=O)(=O)c1ccc(Cl)cc1 | . | 0.22
COc1cccc2c(C)nc(NC3=NCN(CC4CCCO4)CN3)nc12 (centres undefined) | -0.7 | .
Nc1scc[n+]1CC(=O)[O-] | 1.8 | -0.35
CCNc1nc(N)nc(Oc2ccc(OCC)nn2)n1 | 0.15 | -0.46
COc1ccc(-c2nc(-c3ccccc3)c(-c3ccc(Sc4ccccc4)cc3)[nH]2)cc1 | . | 33
Cc1occc1-c1nnc(SCC(=O)NC(=O)NCc2ccccc2)n1Cc1ccccc1 | -0.1 | .
CCOC(=O)C(CC(C)C)NC(=O)c1cc(OC)nc(OC)n1 (centres undefined) | . | -0.75
Cc1cc(NC(=O)c2cc(C(C)(C)C)oc2C)nc(C)n1 | -0.15 | 2.1
O=C1OC(c2ccccc2)=C/C1=C/c1ccco1 | 0.95 | .
CC(C)OC(=O)c1cccnc1SCc1cc(=O)n2ccccc2n1 | 0.3 | 0.83
COc1ccccc1NC(=O)Cc1noc(COC(=O)c2cc(OC)c(OC)cc2OC)n1 | -0.05 | .
COc1ccc(C2/C(=C(\O)c3ccccc3)C(=O)C(=O)N2c2nc3ccccc3s2)c(OC)c1 (centres undefined) | . | -0.52
COc1cc(Br)cc(C=Nc2cccc(-c3nc4ccccc4o3)c2)c1O | -0.3 | -0.43
CC1=C(C(=O)OC(C)C)C(c2ccccc2Cl)CC(=O)N1 (centres undefined) | . | -0.18
CCC1CCCCN1CC(=O)c1ccccc1Cl (centres undefined) | -0.35 | .
CCN1C(=O)C(CC(=O)Nc2ccc(Br)cc2)N(CCNC(C)=O)C1=S (centres undefined) | -0.1 | -0.17
COc1cc(/C=C2\C(=N)N3N=C(S(C)(=O)=O)SC3=NC2=O)ccc1OC(=O)c1ccco1 | -0.85 | 0.39
CC(Oc1ccccc1F)c1nnc(SCC(=O)c2ccc[nH]2)o1 (centres undefined) | -0.9 | .
CCN(C(=O)C(C)Oc1ccccc1)c1ccccc1C (centres undefined) | 0.95 | 0.055
O=C(COC(=O)Cn1cnc2ccccc21)NC1CCCCCC1 | -0.75 | .
COc1cccc(NC(=S)NNC(=O)c2ccccc2Cl)c1 | . | 0.055
CCOC(=O)c1cnc(S/C=C/C(=O)c2ccc(Cl)cc2)nc1N | 2.1 | -0.16
COc1cc2c(cc1NC(C)C(=O)N1CCCC1)oc1ccccc12 (centres undefined) | -0.25 | .
CC1=CCC2(C(=O)OC(C)(C)OC2=O)C(c2ccc(Cl)cc2)C1 (centres undefined) | . | -0.06
O=c1c(-c2ccccc2Cl)c(C(F)(F)F)oc2c(CN3CCOCC3)c(O)ccc12 | . | 0.52
COc1ccc(C(=O)N2CCCN(C)CC2)cc1S(=O)(=O)N(C)Cc1ccccc1 | -0.45 | .
N=c1oc2ccc(Br)cc2cc1-c1nc2ccccc2[nH]1 | -0.35 | 3.9
COc1ccc(/C=N/N=C/c2ccc(OC)c(O)c2)cc1O | 2.2 | -2.6
CCN(CC)c1nc(-c2ccccc2)nc(-c2ccc(Cl)cc2)c1C#N | . | 0.32
CC1=C(C(=O)Nc2ccccc2)S(=O)CCO1 (centres undefined) | -1.2 | 0.31
O=C(NCC1(c2ccccc2)CCOCC1)C(c1ccccc1)c1ccccc1 | . | -0.31
Cc1cc(Nc2ccccc2)n(-c2ccccc2)n1 | -0.1 | -1.1
Cc1ccc(OCCn2cc(C=C(C#N)C#N)c3ccccc32)cc1 | -0.15 | .
CCOC(=O)Cc1nc2ccccc2o1 | 1.9 | 0.08
C1CCCC(NCCCN2CCOCC2)CC1 | -0.6 | 0.23
COc1cccc(OC)c1C(=O)Nc1cc(Cl)ccc1N1CCOCC1 | 0.35 | 0.015
Cc1ccc(C)c(Cn2c(C(=O)OC(C)C)cc3c2ccn3C)c1 | -1.5 | .
Cn1nc(-c2ccc(C(C)(C)C)cc2)cc1N | -0.65 | 0.46
Cc1cc(C)cc(C(=O)NCC(c2ccc(N(C)C)cc2)N2CCOCC2)c1 (centres undefined) | -0.45 | -0.71
O=C1S/C(=C\c2ccc(N3CCOCC3)o2)C(=O)N1Cc1ccc(F)cc1 | -0.8 | -0.12
Cc1cc(C)n2nc(CC(=O)NC3CCCCCCC3)nc2n1 | 0.3 | 6.9
COCc1cc(=O)[nH]c(N)n1 | . | -0.095
CC(=O)NCc1nc2ccccc2n1Cc1ccccc1 | -0.4 | -1.1
COC(=O)c1ccc(-n2cccc2)c(CS(=O)(=O)c2ccc(Cl)cc2)c1 | . | 0.37
CSc1ccc(NC(=O)c2ccccc2C(=O)c2ccc(F)cc2)cc1C#N | . | -0.84
OCC12C3CC4C5C3C1C5C(F)(F)C42 (centres undefined) | -0.05 | .
O=C(NC(Cc1c[nH]c2ccccc12)C(=O)OCc1ccccc1)OCCCCCCl (centres undefined) | . | -0.015
CCCn1c(SCC(=O)N2CCc3ccccc32)nc(O)cc1=O | -0.15 | .
CCn1c(=O)c(=O)[nH]c2cc(C(=O)Nc3ccc4c(c3)CCC4)ccc21 | -0.25 | .
Cc1ccc(-c2noc(CN(C)C(=O)Nc3ccc(Cl)cc3)n2)cc1 | 0.55 | -0.49
CN(C)c1ccc(/C=C/C=C2\C(=O)c3ccccc3C2c2ccccc2)cc1 (centres undefined) | . | -0.6
CCN1CCC(NC2CCC(O)CC2)CC1 (centres undefined) | -0.55 | 0.66
N#CC(=C1CCCC1)c1nc(-c2ccc(O)cc2)cs1 | . | -0.21
O=C(O)C1(c2ccccc2)CCC(Nc2ccccc2)C1 (centres undefined) | -1 | 0.41
COc1ccccc1COc1ccc2c3c(c(=O)oc2c1C)CCCCC3 | 2.1 | 32

Gathered by group: the entries above containing two or more sulfur atoms (4)
SMILES | AID504770 | Ba CapD inh
CSc1cc(-c2csc3ccccc23)[nH]n1 | -0.55 | 0.12
CCOC(=O)c1sc(NC(=O)c2cccs2)nc1-c1ccccc1 | -0.25 | 0.28
COc1cccc(Nc2n[nH]c(=S)s2)c1 | . | -1.1
COc1cc(/C=C2\C(=N)N3N=C(S(C)(=O)=O)SC3=NC2=O)ccc1OC(=O)c1ccco1 | -0.85 | 0.39

(list continues)
SMILES | AID504770 | Ba CapD inh
CCOC(=O)c1c(C)[nH]c(C)c1C(=O)CSC(=S)N(C)C | -1.1 | .
Cc1cc2c(c(=O)o1)C(c1cccc(COc3ccccc3Cl)c1)C(C#N)=C(N)C2 (centres undefined) | 0.85 | 1.7
Cc1ccc(-n2cccc2C=C2C(=O)NC(=O)NC2=O)cc1Cl | 1.6 | -0.45
CCN(CC)c1ncnc2c1cnn2Cc1ccc(Cl)cc1 | -0.3 | 1.1
Cc1nc(N)sc1-c1nnc(SC/C=C/c2ccccc2)n1C | -0.4 | -0.37
Cn1c(=O)cc(SCC(=O)NCC2CCCO2)c2ccccc21 (centres undefined) | 0.05 | -0.22
O=C(OCc1cccc(Cl)c1)N1CCN(Cc2ccccc2OCc2ccccc2)CC1 | . | 0.17
CCC(C)NC(=O)c1cnn2c(C(F)(F)F)cc(-c3ccccc3)nc12 (centres undefined) | -0.25 | 1.1
CCOC(=O)c1sc2ncnc(Nc3ccc(F)cc3)c2c1C | . | 0.68
Cn1c(CO)cnc1SCC(=O)c1ccc(Br)cc1 | 0.55 | -0.17
NCCCN1CCc2ccccc21 | -0.25 | .
COc1ccccc1N1CCN(C(=O)COc2c(C)cccc2C)CC1 | 0.2 | 0.18
Cc1nnc(SCC(=O)c2c(-c3ccccc3)n(C)c3ccccc23)n(N)c1=O | -0.4 | .
CC/C(C)=N/NC(=O)c1ccc(CSc2nncn2C)cc1 | -2.1 | .
Cc1cc2c(cc1C)C(c1ccc(Cl)c(Cl)c1)CC(=O)N2 (centres undefined) | . | -0.62
COc1cc(OC)c(C(=O)NC2CC(C)(C)NC(C)(C)C2)cc1OC | -0.4 | .
CCCCC(c1nnnn1CCc1ccccc1)N1CCN(C2CCCC2)CC1 (centres undefined) | -0.1 | .
Cc1nn(-c2ccccc2)nc1C(=O)c1c(C)[nH]n(-c2ccccc2)c1=O | -0.6 | 0.07
COCCn1c(-c2ccccc2)nc2ccccc21 | 0.5 | 0.54
CCOC(=O)c1nc2sc3c(c2c(=O)[nH]1)CCC(C)C3 (centres undefined) | -0.25 | 67
Cc1noc(C)c1S(=O)(=O)N1CCCC1 | 0.9 | 0.81
O=C(O)CSc1nnc2c3ccccc3n(Cc3ccccc3)c2n1 | 1.7 | -1.3
COc1cc(/C=N/N=C/c2c[nH]c(=O)c(C#N)c2Nc2ccccc2)ccc1O | 0.2 | -0.89
O=[N+]([O-])c1cc(C(F)(F)F)ccc1Oc1ccc(-c2ccccc2)cc1 | . | 0.02
CCC1(C)CC(=O)N(c2cc(Cl)cc(Cl)c2)C(=O)C1 | . | -0.97
CCOC(=O)c1c(NC(=O)CSc2nc3ccccc3[nH]2)sc2c1CCCC2 | . | 0.49
CN1C2CCC1CC(NS(=O)(=O)c1ccc(F)cc1)C2 (centres undefined) | 0.6 | 0.67
Oc1ccc(Br)cc1-c1nnc2ccc3ccccc3n12 | . | 2.7
O=S(=O)(c1ccccc1)N1CCN(c2ncc(-c3ccc(Cl)cc3)cn2)CC1 | . | 1.6
CC1CCCCC1NC(=O)c1nnc(Cc2ccc(Cl)cc2)o1 (centres undefined) | 0.2 | 0.43
CCOc1ccc(-c2ncnn2-c2ccc(Cl)cc2)cc1 | -0.65 | 3
Cc1cc(=O)oc2cc(OCC(=O)N(C)C)c(Cl)cc12 | -0.1 | .
O=C(CCN1C(=O)NC2(CCCC2)C1=O)N1CCC(c2nc3ccccc3s2)CC1 | -0.05 | .
